# RecA intein inh = Mtb RecA intein splicing inhibitors, primary screen, biochemical, fluorescence, HTS. inhibition, %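 (about 9 µM by stock and volumes)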. hit rate 0.75% among 290,000. AID 2221, 2009. cell-free RecA intein splicing; in the data active = inhibition above about 30%; inconclusive = no clear call, values can overlap the other calls;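 also: 0% = vehicle wells and 100% = reference inhibitor control wells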
# Target sequence (P9WHJ3 whole entry, looked up): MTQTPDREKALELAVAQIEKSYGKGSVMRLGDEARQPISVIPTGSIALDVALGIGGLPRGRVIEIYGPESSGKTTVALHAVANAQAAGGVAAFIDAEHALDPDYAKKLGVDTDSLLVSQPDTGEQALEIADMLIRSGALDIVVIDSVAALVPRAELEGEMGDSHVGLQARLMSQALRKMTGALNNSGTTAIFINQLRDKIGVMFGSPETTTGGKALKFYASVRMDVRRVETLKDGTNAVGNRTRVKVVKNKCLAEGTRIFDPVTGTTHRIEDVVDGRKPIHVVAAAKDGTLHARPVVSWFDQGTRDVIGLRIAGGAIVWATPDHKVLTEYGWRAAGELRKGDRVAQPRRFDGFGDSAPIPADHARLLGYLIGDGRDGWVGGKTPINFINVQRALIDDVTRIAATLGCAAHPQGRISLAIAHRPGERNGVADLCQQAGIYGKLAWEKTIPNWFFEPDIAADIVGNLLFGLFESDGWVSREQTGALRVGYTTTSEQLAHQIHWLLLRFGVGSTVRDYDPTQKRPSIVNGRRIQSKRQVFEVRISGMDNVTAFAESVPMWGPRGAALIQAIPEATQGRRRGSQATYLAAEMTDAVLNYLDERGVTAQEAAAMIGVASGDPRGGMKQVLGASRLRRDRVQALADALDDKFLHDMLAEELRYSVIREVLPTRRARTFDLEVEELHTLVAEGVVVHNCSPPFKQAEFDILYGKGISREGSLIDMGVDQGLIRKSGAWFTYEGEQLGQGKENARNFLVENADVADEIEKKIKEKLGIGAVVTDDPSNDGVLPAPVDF
# Mtb betalactam = beta-lactam sensitization of Mtb H37Rv, H37Rv; M. tuberculosis H37Rv growth with meropenem, percent inhibition; hits of this screen are not shown here; inhibition, % at 25 µM; hit rate 0.27% among 330,000; AID 434955, 2010;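 active = about 74% or more and at least 40 points above the plate without the antibiotic, then above 30% in a dose series; inconclusive = first-round hits that could not be retested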;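 also: growth measured after seven days incubation then overnight dye step; 0% = bacteria only wells and 100% = bacteria with antibiotic; twin plates without the antibiotic show which effects depend on it; some results filed as inactive read as strong as hits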
# YopH PTP inh = YopH tyrosine phosphatase inhibitors, primary screen, biochemical, fluorescence Ex485/Em525. inhibition, %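 (about 10 µM by stock and volumes)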. hit rate 0.16% among 140,000. AID 898, 2007;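 active = inhibition of 50% or more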;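 also: controls were vehicle for no effect and minimum signal wells for full effect; inactives centre near -20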
# Arbovirus inh = antivirals against arbovirus infection, primary screen, cell-based, full library, 10K replicate subset. arbovirus infection cell-based antiviral screen. inhibition, % at 10 µM. hit rate 0.37% among 200,000. AID 1251, 2008;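 active = inhibition from about 30%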;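 also: bluetongue infection of BSR cells; cell survival read as ATP light after 72 h; 0% = infected wells without compound and 100% = uninfected wells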
# Mtb growth = M. tuberculosis H37Rv growth inhibitors, H37Rv strain (AID 1626); inhibition, % at 10 µM, or IC50 in µM where a hit was titrated; hit rate 0.95% among 220,000; M. tuberculosis H37Rv growth inhibition; higher % means a stronger effect;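 active = confirmed in a dose series; inconclusive = inhibition above 80% but not taken into the dose series; inactive = below 80% or under 30% at every dose of the series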;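 also: bacteria incubated seven days before Alamar blue readout; 0% = bacteria only wells and 100% = bacteria with antibiotic wells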
# Arbovirus inh repeat = recorded beside Arbovirus inh, whose call it bears; inhibition, %; measured here: 10K subset replicate screen; many hits read low in the repeat;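 first of two repeat runs on a subset; 0% = infected and 100% = uninfected wells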
# An asterisk follows results filed as active; ? = inconclusive; · = not tested or not shown.
# Start of the data: the first 15 compounds, to show the layout:
SMILES,RecA intein inh,Mtb betalactam,YopH PTP inh,Arbovirus inh,Mtb growth,others
CCOc1cccc(-c2c(C(=O)N/N=C/c3ccoc3)nnn2-c2nonc2N)c1,0.1,47,·,·,·,
Cc1cccc(Nc2ccc3nonc3c2[N+](=O)[O-])c1C,0.0,3,·,·,·,
OCCC1CN(Cc2cnc(-c3ccc(Cl)cc3)nc2)CCN1C1CCCCC1 (stereo not drawn),-3.8,-2,·,-35,3%,
CCc1ccc(C(=O)NCC2COc3ccccc3O2)o1 (stereo not drawn),·,-4,-35,3,-6%,
CC(=O)c1ccc(OCCCC(=O)NC2CCCc3ccccc32)cc1 (stereo not drawn),1.5,-10,-24,-4,-2%,
Cc1ccc(S(=O)(=O)N(C)CC(=O)NCCc2c[nH]c3ccccc23)cc1,2.8,1,·,·,·,
Cc1cc(C(=O)NCC(=O)Nc2c(C)cccc2C)c(C)o1,3.5,?,·,·,·,
CCOC(=O)c1sc(N)nc1C(C)C,0.0,-4,-19,12,6%,
COc1cccc(CN(C)C(=O)c2csc3c2CCCC3)c1OC,1.6,-1,·,-8,-2%,
CN(C)c1cc[n+](CC(=O)N2c3ccccc3Sc3ccccc32)cc1,-2.5,76,·,-14,67%,
Cc1csc2c(=O)sc(NC(=O)c3cccs3)nc12,-1.2,6,·,·,-2%,
Cc1cccc(-c2cc3nc(-c4ccccc4)cc(=O)n3[nH]2)c1,1.9,86,·,·,·,
O=C(NCCCN1CCOCC1)c1cnccn1,0.2,3,·,·,·,
CCOc1c2ccc(C(=O)NCc3ccc4c(c3)OCO4)cc2nn1CC,0.2,11,-31,3,-2%,
CC(=O)NC(=S)Nc1ccc(N2CCOCC2)c(S(=O)(=O)Nc2cc(Cl)ccc2Cl)c1,5.3,-4,·,12,2%,

# The list itself, previewed entries included:
SMILES,RecA intein inh,Mtb betalactam,YopH PTP inh,Arbovirus inh,Mtb growth,others
CCOc1cccc(-c2c(C(=O)N/N=C/c3ccoc3)nnn2-c2nonc2N)c1,0.1,47,·,·,·,
Cc1cccc(Nc2ccc3nonc3c2[N+](=O)[O-])c1C,0.0,3,·,·,·,
OCCC1CN(Cc2cnc(-c3ccc(Cl)cc3)nc2)CCN1C1CCCCC1 (stereo not drawn),-3.8,-2,·,-35,3%,
CCc1ccc(C(=O)NCC2COc3ccccc3O2)o1 (stereo not drawn),·,-4,-35,3,-6%,
CC(=O)c1ccc(OCCCC(=O)NC2CCCc3ccccc32)cc1 (stereo not drawn),1.5,-10,-24,-4,-2%,
Cc1ccc(S(=O)(=O)N(C)CC(=O)NCCc2c[nH]c3ccccc23)cc1,2.8,1,·,·,·,
Cc1cc(C(=O)NCC(=O)Nc2c(C)cccc2C)c(C)o1,3.5,?,·,·,·,
CCOC(=O)c1sc(N)nc1C(C)C,0.0,-4,-19,12,6%,
COc1cccc(CN(C)C(=O)c2csc3c2CCCC3)c1OC,1.6,-1,·,-8,-2%,
CN(C)c1cc[n+](CC(=O)N2c3ccccc3Sc3ccccc32)cc1,-2.5,76,·,-14,67%,
Cc1csc2c(=O)sc(NC(=O)c3cccs3)nc12,-1.2,6,·,·,-2%,
Cc1cccc(-c2cc3nc(-c4ccccc4)cc(=O)n3[nH]2)c1,1.9,86,·,·,·,
O=C(NCCCN1CCOCC1)c1cnccn1,0.2,3,·,·,·,
CCOc1c2ccc(C(=O)NCc3ccc4c(c3)OCO4)cc2nn1CC,0.2,11,-31,3,-2%,
CC(=O)NC(=S)Nc1ccc(N2CCOCC2)c(S(=O)(=O)Nc2cc(Cl)ccc2Cl)c1,5.3,-4,·,12,2%,
COC(C(=O)NCc1ccc(C)cc1)c1ccccc1 (stereo not drawn),5.2,6,·,8,0%,
COC(=O)c1cc(C)sc1NC(=O)CC1Nc2ccccc2NC1=O (stereo not drawn),·,·,·,-9,5%,
Cc1cccc(N2CCN(C(=O)c3ccc4nc[nH]c4c3)CC2)c1C,6.4,-3,-7,-4,0%,
Cc1c(NC(=O)c2ccc(NS(=O)(=O)c3ccccc3)cc2)c(=O)n(-c2ccccc2)n1C,-1.2,-9,·,·,·,
Cc1nc2sc3c(c2c(=O)n1NC(=O)CCl)CCCC3,6.4,-5,·,9,2%,
CCN(CC(=O)NC(C)(C)C)C(=O)c1ccc(Br)cc1,-0.1,-3,·,7,-1%,
CCCNC(=S)N1CCN(c2nc(-c3cccc(OC)c3)cs2)CC1,9.4,9,·,·,·,
CC(O)(C#CCN1CCCCC1)c1ccccc1 (stereo not drawn),0.1,9,-20,1,1%,
COc1ccc(C(=O)NNC(=O)C2CC=CCC2)cc1 (stereo not drawn),-2.4,-20,·,·,·,
CC1CCCCC1NC(=O)c1cccc(N2C(=O)C3C4C=CC(C4)C3C2=O)c1 (stereo not drawn),1.3,-1,·,·,·,
CCOc1cc(-c2ccccc2)nc(N)n1,0.0,-1,-33,-3,-6%,
CCCn1c(N)c(C(=O)COc2ccc(Br)cc2F)c(=O)n(C)c1=O,1.9,2,·,7,1%,
CCOC(=O)c1c(NC(=O)C2c3ccccc3Oc3ccccc32)sc(C(N)=O)c1C,-0.7,0,-23,-9,·,
Clc1ccc(C2=CSC3=NCCN23)c(Cl)c1,-0.6,-4,·,·,·,
COc1ccc(C=C(C(C)=O)C(C)=O)cc1OC,3.6,-5,-23,-1,-3%,
Cc1c(N=NC2=C(O)CC(C)(C)CC2=O)c(=O)n(-c2ccccc2)n1C,-4.2,-8,·,-8,-1%,
Cc1cc(=O)n2nc(N3CCC(C(=O)N4CCN(Cc5ccccc5)CC4)CC3)sc2n1,-2.0,2,15,5,-4%,
C=Cn1ccnc1CC(O)c1ccc(OC)cc1 (stereo not drawn),-1.0,-4,·,·,·,
Cn1c(SCC(=O)N2CCOCC2)nnc1-c1ccc(NC(=O)c2ccccc2F)cc1,-3.6,-1,-30,1,-11%,
Cc1ccc(SCCNC(=O)/C=C/c2ccccc2Cl)cc1,3.6,0,-22,-12,-5%,
CN1CCN(c2ccc(NC(=O)Oc3ccccc3)cc2)CC1,-2.0,-10,5,1,-12%,
COc1cccc(/C=N/NC(=S)Nc2cccc(S(=O)(=O)N(C)C)c2)c1,-4.9,-8,·,·,3%,
CCn1cc(S(=O)(=O)Nc2ccc(Cl)cc2F)cn1,1.0,-15,·,·,·,
O=C(COc1ccc([N+](=O)[O-])cc1)NCc1cccnc1,5.9,-11,-20,-6,4%,
Cc1cc(S(=O)(=O)N(C)CCc2ccccc2)ccc1-n1cnnn1,1.9,0,-31,-1,-13%,
Cc1cccc(Cl)c1NC(=O)N1CCCN(c2ncccc2[N+](=O)[O-])CC1,-0.3,-3,·,·,-16%,
Cc1ccc(C)c(NC(=O)C(c2ccccc2)N2CCOCC2)c1 (stereo not drawn),-1.8,-4,·,1,8%,
CC(C)NS(=O)(=O)c1ccc(OCC(=O)N2CCN(c3ccccc3)CC2)cc1,-3.4,-5,·,4,1%,
COC(=O)C(O)(c1cn(C)c2ccccc12)C(F)(F)F (stereo not drawn),2.1,-9,-36,3,10%,
COC(=O)c1ccc(COc2ncnc3sccc23)cc1,·,-2,·,-12,-1%,
Cc1ccc(N=Nc2c(C)[nH]n(-c3ccccc3)c2=O)cc1,1.0,2,·,-10,0%,
Cc1onc(-c2c(F)cccc2Cl)c1C(=O)Nc1nnc(C2CC2)s1,2.2,0,-30,-4,-17%,
CCOC(=O)CSc1n[nH]c(-c2ccco2)n1,-1.2,4,-39,7,-6%,Arbovirus inh repeat=6

# Ordered by heavy-atom count (rising): some entries from above
SMILES,RecA intein inh,Mtb betalactam,YopH PTP inh,Arbovirus inh,Mtb growth,others
CCOC(=O)CSc1n[nH]c(-c2ccco2)n1,-1.2,4,-39,7,-6%,Arbovirus inh repeat=6
Cc1cccc(Cl)c1NC(=O)N1CCCN(c2ncccc2[N+](=O)[O-])CC1,-0.3,-3,·,·,-16%,
CC(C)NS(=O)(=O)c1ccc(OCC(=O)N2CCN(c3ccccc3)CC2)cc1,-3.4,-5,·,4,1%,

# New compounds follow.
SMILES,RecA intein inh,Mtb betalactam,YopH PTP inh,Arbovirus inh,Mtb growth,others
CCCN1C2CCCC1CC(NC(=O)c1ccc(OC)cc1)C2 (stereo not drawn),-0.7,-5,·,·,·,
Cc1ccc(/C=N/NC(=O)CSc2nnc(-c3ccccc3)n2-c2ccc(Cl)cc2)o1,-0.3,-8,-23,3,-5%,
CCOC(=O)COc1cc(OCC(=O)OCC)c2c(=O)cc(-c3ccccc3)oc2c1,-0.7,99,-23,-5,1.4µM*,
O=C(O)c1ccc(NS(=O)(=O)c2cc(C(=O)O)ccc2Br)cc1,0.1,9,-19,-13,1%,
COc1cc(NS(=O)(=O)c2ccc(NC(=S)NC(=O)c3ccco3)cc2)nc(OC)n1,0.2,5,·,·,-5%,
O=C(NCc1ccccc1Cl)C1CCCN(S(=O)(=O)c2cnc[nH]2)C1 (stereo not drawn),-1.7,-4,-25,12,-6%,
Cn1ccnc1CC(O)(c1ccccc1)c1ccccc1,-0.8,-1,·,·,·,
CNS(=O)(=O)c1cc(C(=O)OCC(=O)NC2CCCc3ccccc32)ccc1Cl (stereo not drawn),-2.3,19,-31,0,3%,
O=C(NC(Cc1ccccc1)C(=O)O)OCC1c2ccccc2-c2ccccc21 (stereo not drawn),-0.6,-14,·,·,·,
CCOc1ccc(-c2noc(CCCC(=O)NC3CCCCC3)n2)cc1OC,1.1,1,·,·,·,
O=C1c2ccccc2C(=O)N1CCc1csc(-c2cccc(Cl)c2)n1,-0.5,12,-31,6,-3%,
COc1ccc(CC2NCCC3=CC(=O)CCC32)cc1O (stereo not drawn),-10,1,·,·,-9%,
NC(=O)[C@@H]1CCCNc2c(F)cc([N+](=O)[O-])cc2C(=O)N[C@@H](CCC(=O)O)C(=O)N[C@@H](CO)C(=O)N1,2.0,-8,-26,13,8%,
COc1ccc(NC(=O)C(=O)c2cn(CC(=O)N3CCOCC3)c3ccccc23)cc1OC,4.0,0,·,·,·,
Cc1nc2ccccn2c1C(=O)NNC(=S)Nc1ccccc1,-1.7,-3,·,·,-9%,
O=C(CSc1nnc(CCCOc2ccc(Cl)cc2Cl)o1)Nc1ccc(C(=O)O)cc1,2.0,6,-17,-18,0%,
Cc1cc(C(=O)CN2C(=O)NC(C)(c3ccccc3)C2=O)c(C)n1CC1CCCO1 (stereo not drawn),0.9,-15,-5,5,7%,
CCn1c(SCC(=O)c2cc(C)ccc2C)nc2cc(S(=O)(=O)N3CCOCC3)ccc21,1.4,1,-25,1,4%,
COc1ccc(NC(=O)C2CCCN2S(=O)(=O)c2ccc(Cl)cc2)cc1 (stereo not drawn),2.4,-6,·,·,·,
CCCc1cc(=O)oc2cc(C)cc(OCC(=O)N3CCC(C(=O)O)CC3)c12,2.2,-10,·,·,·,
BrC(/C=N/N1CCN(Cc2ccccc2)CC1)=C/c1ccccc1,9.6,-4,·,·,3%,
O=C(CN1C(=O)COc2ccccc21)N1CCN(c2ccccc2F)CC1,-2.5,6,-35,4,15%,
CC(C(=O)Nc1cccnc1)n1cc([N+](=O)[O-])cn1 (stereo not drawn),1.0,-7,·,6,-1%,
CCCCOc1ccc(CN2CCC(O)CC2)cc1,-1.7,-13,-50,-11,-5%,Arbovirus inh repeat=-6
COCCn1c(=O)[nH]c2cc(C(=O)NCC3CCCO3)ccc2c1=O (stereo not drawn),-9.7,?,-3,1,-11%,Arbovirus inh repeat=-3
COc1ccc(Br)cc1S(=O)(=O)n1c([N+](=O)[O-])cnc1C,0.7,-10,·,·,·,
CCN(CC)S(=O)(=O)c1ccccc1/C=N\O,0.0,23,-34,3,3%,
COc1ccc(Cn2nnc(C(=O)Nc3ccc4c(c3)OCCO4)c2N)cc1Br,1.7,-6,·,·,·,
[O-][n+]1cccc(C(O)c2ccccc2)c1 (stereo not drawn),-1.2,-9,·,·,·,
CCCC(=O)n1nc(-c2ccco2)nc1N,2.8,-13,-13,-2,-1%,
CC(C)(C)NC(=O)C(c1ccc(F)cc1)N(Cc1ccco1)C(=O)CCC(=O)Nc1nccs1 (stereo not drawn),-5.6,-3,·,·,·,
O=[N+]([O-])c1ccc(S(=O)(=O)NCC(c2cccnc2)N2CCOCC2)cc1 (stereo not drawn),-1.7,-1,·,2,-2%,
CCCC(=O)Nc1cccc(S(=O)(=O)N(C)c2ccccc2)c1,1.1,0,-24,1,-4%,
C/C(=C\C(=O)c1ccc(Br)cc1)NCc1ccc(C)cc1,19,-6,-20,16,4%,
CN(C)c1ccc(P(=O)(OCc2ccccc2)C(O)c2cccnc2)cc1 (stereo not drawn),-1.3,7,-30,4,-7%,

# From PubChem

# A portion of the library; count on the stated rates, not on these rows.
